# Assay outcomes (PubChem)
# hNpr1 antagonist: Natriuretic polypeptide receptor (hNpr1) antagonism - Primary qHTS | Potency, µM (titrated, usually from 46.3 µM), for inactives: top-dose activity change, negative = inhibition, most hits filed as inhibitors | HEK293 hNpr1 GloSensor cGMP, ANP-stimulated luminescence | 1.6% of 76,000 active | AID 1347048, 2019 | Atrial natriuretic peptide receptor 1 (Homo sapiens), P16066; active = well fitted inhibition curve with a large enough effect; inconclusive = small, poorly fitted or top-dose-only effect; inactive = no such curve, though single readings can be large or run the other way;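 further: nearly all actives have a fitted effect of over 60% in size; nearly all hits also lower the signal before the agonist is added; a reference antagonist and vehicle were the controls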
# Target sequence (P16066 whole entry, looked up): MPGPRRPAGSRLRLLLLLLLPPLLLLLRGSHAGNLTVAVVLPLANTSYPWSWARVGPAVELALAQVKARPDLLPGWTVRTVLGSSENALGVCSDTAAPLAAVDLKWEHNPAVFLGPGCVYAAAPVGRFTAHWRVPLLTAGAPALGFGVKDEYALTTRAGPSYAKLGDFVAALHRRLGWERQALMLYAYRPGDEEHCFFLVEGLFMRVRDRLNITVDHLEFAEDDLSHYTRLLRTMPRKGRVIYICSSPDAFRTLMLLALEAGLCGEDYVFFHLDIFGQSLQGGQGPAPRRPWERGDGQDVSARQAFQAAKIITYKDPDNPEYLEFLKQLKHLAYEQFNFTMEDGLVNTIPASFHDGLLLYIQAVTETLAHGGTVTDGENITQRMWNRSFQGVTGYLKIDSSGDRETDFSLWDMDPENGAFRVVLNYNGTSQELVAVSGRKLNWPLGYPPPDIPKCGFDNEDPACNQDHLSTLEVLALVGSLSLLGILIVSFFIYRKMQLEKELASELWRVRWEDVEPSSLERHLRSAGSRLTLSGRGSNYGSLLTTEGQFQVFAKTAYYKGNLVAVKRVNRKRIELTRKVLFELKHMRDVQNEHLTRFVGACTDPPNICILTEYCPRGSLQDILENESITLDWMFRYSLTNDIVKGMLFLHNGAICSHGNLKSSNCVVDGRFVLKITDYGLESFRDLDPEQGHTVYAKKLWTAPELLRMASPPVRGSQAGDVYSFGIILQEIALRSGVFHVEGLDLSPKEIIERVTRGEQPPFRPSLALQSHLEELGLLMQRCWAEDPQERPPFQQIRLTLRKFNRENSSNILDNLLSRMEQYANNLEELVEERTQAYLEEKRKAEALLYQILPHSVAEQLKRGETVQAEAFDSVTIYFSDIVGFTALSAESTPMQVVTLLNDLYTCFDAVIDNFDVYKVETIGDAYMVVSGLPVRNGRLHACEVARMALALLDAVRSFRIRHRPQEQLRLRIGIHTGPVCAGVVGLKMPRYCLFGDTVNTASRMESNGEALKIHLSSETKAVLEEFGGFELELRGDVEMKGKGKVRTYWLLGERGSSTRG
#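 HEK293 cells stably expressing human Npr1 and cGMP GloSensor pGS-40F, loaded 2 h with 2% GloSensor reagent, given compound 30 min at room temperature. Luminescence read before and 20 min after 0.1 nM hNppA.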
# * marks the source's active call; other numbers are inactive results; ? = inconclusive; & = joins results of further samples; [ ] = another dose, or the depositor's remark. On the % scale 0 is the no-effect control and ±100 the full control effect; potency means the concentration at half of the fitted maximal effect.
Structure | hNpr1 antagonist
COCCCN1CCCC2(CCN(C(=O)NCc3cccc(F)c3)C2)C1=O (stereo not drawn) | -6.0%
COCC(=O)Nc1ccc([C@H]2OCC(=O)N(Cc3ccccc3)[C@@H]2CO)cc1 | 2.8%[70.6 µM]
O=C(c1ccc(Cl)nc1)N1CCc2nc(-c3ccc(Cl)cc3)nc(-c3ccccc3)c2C1 | 0.4%
NC(=O)c1cccc(-c2cc3c(cn2)CN(CCc2ccccc2)CCN3)c1 | -6.3%[70.6 µM]
Cc1noc([C@@H]2CN(Cc3ccccc3)C[C@H]2CO)n1 | 5.0%
O=C(NCc1cccnc1)C1CN(S(=O)(=O)C2CC2)CC12CCCCC2 (stereo not drawn) | -12.0%
O=C1N[C@@H]2CCN(C(=O)c3ccc(C(F)(F)F)cc3)[C@@H]2C(=O)N1c1ccc(F)cc1 | -0.6%[70.6 µM]
O=C(O)C1CC2(CCN(C(=O)NCCc3ccccc3)CC2)CN1 (stereo not drawn) | -9.7%
Cc1nn2c(c1-c1ccccc1N1CCCC1)N(C(=O)C1CCOCC1)CCC2 | -1.6%[70.6 µM]
Fc1ccc(CCC2CCCNC2)cc1F (stereo not drawn) | -1.0%
O=C(NCc1ccccc1)N1CCC2(CCCCO2)CC1 | -19.2%
Cc1cccc(OC[C@H]2C[C@@H](N)[C@H](O)[C@@H]2O)n1 | 0.0%[70.6 µM]
Cc1noc(C)c1CN1CCc2c(n(Cc3cccnc3)n(CCc3ccccc3)c2=O)C1 | 9.5%
CCn1ncc(N2CCC(NC(=O)c3ccc(C)s3)CC2)cc1=O | -15.7%
O=C(CC1CNCCO1)N1CCN(C(=O)c2ccccc2)CC1 (stereo not drawn) | -6.5%
CN(C)[C@@H]1CN(C(=O)c2ccoc2)CC[C@@H]1CO | 4.0%
O=C(C1CCCCC1)N1C[C@@H]2OCC(=O)N(Cc3ccccn3)[C@@H]2C1 | 4.3%[70.6 µM]
c1cnc2cc(-c3nc(C4CCOC4)no3)ccc2n1 (stereo not drawn) | 12.3%
O[C@@H]1CN(Cc2ccc(-c3ccn[nH]3)o2)CC[C@H]1c1ccc2c(c1)OCO2 | -17.6%
CN(C(=O)c1ccccc1)C1CCCc2ccccc21 (stereo not drawn) | -0.3%[70.6 µM]
Cc1ccc(C)c(N2CCN(C(=O)c3noc(-c4ccc[nH]c4=O)n3)CC2)c1 | 2.4%
CCOc1ccc(C(=O)NC2CCN(c3cc(-c4ccc(OC)cc4)[nH]n3)C2)cc1OCC (stereo not drawn) | -10.3%
COc1ccc(CNC2(Cc3cc(CC(C)C)on3)COC2)cc1 | -2.6%[70.6 µM]
CCOCCC(=O)N1CCC2(CC1)CC(c1ccccc1)C(=O)N2C (stereo not drawn) | -8.0%
COc1ccc(CNC2(Cc3cc(-c4ccc(F)cc4)on3)COC2)cc1 | -11.9%[70.6 µM]
Cc1cnc(C2CCC2)n1CCNS(=O)(=O)c1ccccc1 | -2.7%
O=C(Nc1ccccc1)Nc1ccc([C@H]2OCC(=O)N(Cc3ccccc3)[C@@H]2CO)cc1 | -17.2%[70.6 µM]
Cn1ncc(N2CCC(CNC(=O)c3cn4cccnc4n3)C2)cc1=O (stereo not drawn) | 7.1%
CCOCC(=O)N1CCC(N2C(=O)C3(CCCCC3)C2c2ccccc2)CC1 (stereo not drawn) | -8.9%
CCOC(=O)C1(Cc2ccccc2Cl)CCN(S(=O)(=O)c2ccccc2)CC1 | -2.8%
Cc1cc(CN(C)C(=O)[C@H]2C[C@@H](C(=O)O)N(C)[C@H]2c2cccc(F)c2F)on1 | -2.0%
O=C(N[C@H]1CCN2C(=O)c3cc(-c4cccs4)ccc3NC(=O)[C@H]12)C1CCCC1 | 5.9%[70.6 µM]
COc1ccc(OC2CCN(C(C)=O)CC2)c(C(=O)NC(C)Cc2cccs2)c1 (stereo not drawn) | 3.3%
COc1cc(=O)n2c(c1C(=O)Nc1ccc(Cl)cc1F)CCCC2 | 0.1%
COCCS(=O)(=O)c1ncc(CN(CCO)Cc2ccccc2)n1Cc1ccccc1 | -1.8%
COCC(=O)NC[C@H]1O[C@@H](CO)[C@@H](O)[C@H]1N(C)Cc1ccccc1 | 8.9%[70.6 µM]
COc1ccc(C(=O)N2CCC(c3noc(-c4cnccn4)n3)C2)cn1 (stereo not drawn) | 3.3%
CC(C)c1noc(CC2CCN(C(=O)c3ccc(C(C)(C)C)cc3)CC2)n1 | -3.7%
Cc1ccc(C2Cn3cnc(C(=O)N4CCC(C(=O)NCCC5=CCCCC5)CC4)c3CO2)cc1 (stereo not drawn) | -9.6%
Cc1cccc(CN2C[C@@H](F)[C@@H](OCc3nc4ccccc4n3C)C2)n1 | 5.7%[70.6 µM]
Cc1ccc(-c2nnc(C3CN(C(=O)c4ccn[nH]4)CC34CCOCC4)o2)cc1 (stereo not drawn) | 5.2%
c1ccc(-c2nc3c(c(NCC4OCCc5ccccc54)n2)CCNCC3)nc1 (stereo not drawn) | 4.1%
CN(Cc1ccccc1)C(=O)C1CCN(c2ncncn2)CC1 | 0.6%
COc1ccc(CN2C(=O)COC[C@@H]2[C@H](O)c2ccc(NC(=O)Cc3ccccc3)cc2)cc1 | 1.6%
COC(=O)C1=C(C)N=C2SC=C(CC(=O)N(C)Cc3ccco3)N2C1c1cccc(Cl)c1 (stereo not drawn) | ?
O=C1NCCC[C@@H]1NC(=O)[C@H]1CN(C(=O)c2cccc(F)c2)CCN1C(=O)c1cccnc1 | 0.5%
O=C1NCCCCCN(Cc2cccnc2)[C@@H]2CN(S(=O)(=O)c3ccccc3)CC[C@@H]12 | -7.7%
Cc1cccc(OCC(=O)N2CC(C(=O)NCCc3ccncc3)C3(CCOCC3)C2)c1 (stereo not drawn) | 8.8%
Cc1cnn(CC(=O)N2C[C@@H](COCC3CC3)[C@H](c3ccccn3)C2)c1 | -2.2%
Cc1nc(-c2ccc(Cl)cc2)n(Cc2ccccc2)c(=O)c1CCO | -1.5%
COC1C(=O)N(C2CCN(S(=O)(=O)c3cccnc3)CC2)C12CCOCC2 (stereo not drawn) | 1.9%
CN(Cc1ccccc1C(F)(F)F)C(=O)c1cccc(Cl)c1 | 0.0%[70.6 µM]
COC(=O)[C@@H](Cc1cccnc1)NC(=O)[C@H]1CN(S(=O)(=O)c2ccccc2)CCN1S(C)(=O)=O | 3.0%
COc1ccc(-c2nc(C(C)C)nc3c2CCN([S+](=O)([O-])c2cccc(C(F)(F)F)c2)CC3)cc1 | 0.0%
CN(Cc1ccsc1)Cc1ccccc1C(F)(F)F | -0.9%[70.6 µM]
O=C(CC1CCCN(c2cnn(CC3CC3)c(=O)c2)C1)NCc1cc(F)cc(F)c1 (stereo not drawn) | -0.9%
CCC(=O)Nc1cc(C(=O)NCc2ccc(N3CCN(C)CC3)cc2)c2ccc(C)nc2c1 | 3.0%
Cc1ccc(CNC(=O)C2(c3ccc(NC(=O)C4CC4)cc3)CCC2)cc1 | 8.3%
COCCC(=O)NCCC1CCN(C(=O)Nc2ccccc2F)CC1 | -7.8%
Cc1cccnc1CN(C)C(=O)c1ccc2nc(-c3ccccc3)cn2c1 | 4.7%

# The results go on.
Structure | hNpr1 antagonist
COc1cccc(C(=O)N2CC3(Cc4ccccc4CN3[S+](C)(=O)[O-])C2)c1 | -3.1%
CN(Cc1ccc(CCN)cc1)Cc1cccc(-n2cccn2)c1 | 5.7%
Cc1nc(-c2cn(C3CCCN(C(=O)c4ccc(C)s4)C3)nn2)no1 (stereo not drawn) | 2.2%
CCc1nc2c(c(-c3ccc(Cl)cc3)n1)CN(S(=O)(=O)c1ccccc1)CC2 | 2.4%
COc1ccc(-n2c(=O)[nH]c3cccnc32)cc1 | -3.5%[70.6 µM]
Cc1oc2c(c1C(=O)NCCN1CCOCC1)CN(Cc1cccc(F)c1)CC2 | 0.2%
COc1ccc(-c2noc([C@@H](C)NC(C)=O)c2C(=O)O)cc1 | 2.9%[70.6 µM]
O=C1CCN(C(=O)C2CCN(C(=O)CN3CCCC3=O)CC2)CCCCCCN1 | 0.0%
CCN1c2cc(C(=O)Nc3ccc(Cl)c(Cl)c3)ccc2C(=O)N2CCCCC21 (stereo not drawn) | -0.8%
CCOC(=O)C1(Cc2cccc(OC)c2)CCCN(Cc2cnc[nH]2)C1 (stereo not drawn) | 0.0%
Cc1cccc(C(=O)N2CCC(C3CCN(S(C)(=O)=O)CC3)C2)c1 (stereo not drawn) | 9.9%
CS(=O)(=O)N1CCN(C(=O)Cn2nc3c(cc2=O)CCCCC3)CC1 | 5.5%
COc1ccc(-c2onc(C)c2C(=O)NCc2cccs2)cc1 | -6.0%
O=C(c1ccsc1)N1CCC(c2nc(C3CCOCC3)no2)CC1 | 20.1%
C[C@@H]1CN(C2(C(=O)N[C@@H](C)C(N)=O)Cc3ccccc3C2)C[C@H](C)O1 | 1.0%
COCC(=O)NC1CCC12CCN(C(=O)c1ccc(OC)cc1)CC2 (stereo not drawn) | 1.0%
COC[C@@H]1CN(Cc2cc(C)nn2C)C[C@H]1c1nc(C)no1 | -1.4%
O=C(NCCn1cccc1-c1nc(-c2ccc3c(c2)OCO3)no1)c1ccccc1F | -0.8%
COC(=O)[C@@H]1Cc2ncn(Cc3ccc(Cl)cc3)c2CN1Cc1ccc(C(=O)O)cc1 | -5.8%
COc1ccc(C(=O)N2CCC(N3C(=O)C(OCC4CC4)C34CCCCC4)CC2)cc1 (stereo not drawn) | 3.6%
CCOC(=O)c1ccc(NC(=O)COc2ccc(-c3nnc4n3CCCC4)cc2)cc1 | -12.9%
CCN(CC)C(=O)[C@@H](C)C1CC[C@@]2(C)CC[C@H](NC(=O)c3ccc(OC)cc3)[C@@H](C)[C@@H]2[C@H]1O (stereo partly drawn) | -8.8%
COc1ccc(-n2nc(C)c([C@@H]3C=C[C@@H](NC(=O)NC4CCCCC4)C3)c2C)cc1 | 22.4µM*
O=C(C1CC1)N1C[C@@H]2OCC(=O)N(CC3CC3)[C@@H]2C1 | -0.2%[70.6 µM]
CN(Cc1cccn1C)C(=O)Cc1ccc(F)cc1 | 0.8%&2.7%[70.6 µM]
O=C(COc1ccc(-c2nnc3n2CCCC3)cc1)Nc1cccc(F)c1 | -7.3%
O=C(c1ccccc1)N1CCC(NCCN2CCCCC2CO)CC1 (stereo not drawn) | -2.2%
CC(C)NC[C@H]1O[C@@H](CO)[C@@H](O)[C@H]1N1CCN(c2ccccn2)CC1 | 7.3%
CSCc1noc(Cc2c(C)nn(-c3ccccc3)c2C)n1 | 2.2%
COc1ccc([S+](=O)([O-])N2CCC3(CC2)OCCN(CCc2ccccc2)C3=O)cc1 | -25.1%
COCCN1C(=O)c2ccccc2C(C(=O)Nc2ccccc2OC)C12CCCC2 (stereo not drawn) | -0.9%
CCOC(=O)C1CCN(C(=O)c2cn3ccnc(-c4ccc(C)cc4)c3n2)CC1 | -12.1%
COC[C@H]1C[C@@H](NCC(C)C)[C@H](O)[C@@H]1O | 4.3%[70.6 µM]
COc1ccccc1OCCNC(=O)c1ccc(Cn2ccn3nc4c(c3c2=O)CCCC4)cc1 | -13.5%
COc1ccccc1-c1ccc(CN2CCCC(c3nc4ccc(F)cc4c(=O)[nH]3)C2)cc1 (stereo not drawn) | ?
O=C1CCN(C(=O)C2CCN(C(=O)CCCc3ccccc3)CC2)CCCCCCN1 | -4.5%
Cc1cc(C(=O)N2CC(F)(F)C[C@H]2c2nnc(C)o2)c(C)o1 | 7.5%
CCC(O)c1cc2n(n1)CCN(C(=O)c1ccc(-c3ccccc3)n1C)C2 (stereo not drawn) | 15.8µM*
COc1cc(OC)cc(N2C(=O)[C@@H]3C[C@@H](NC(=O)c4cccn4C)CCN3C2=O)c1 | 1.2%[70.6 µM]
NC(=O)[C@@H]1CCCN1C(=O)c1ccc2oc(-c3cccc(F)c3)nc2c1 | 2.9%
CC(C)N1C(=O)C2(CCCC2)C1C(=O)NCCCN1CCN(c2ccccc2)CC1 (stereo not drawn) | 2.5%
CCCc1noc(-c2nc(-c3ccccc3F)no2)n1 | ?
Cn1nc2n(c1=O)CCN(Cc1ccncc1F)CC2 | -3.5%
Cc1cc(Cl)ccc1OCC(=O)N1CCC2(CCCNC2=O)C1 (stereo not drawn) | 12.5%
COc1ccc(CCN(C)Cc2nc(-c3ccccn3)no2)cc1OC | 0.4%
Cc1ccc(-c2ccc3nnc(CNC(=O)c4ccncc4)n3n2)cc1C | 12.2%
CCNC(=O)N(C1CC1)C1CCOC2(CCN(C(=O)Cc3cccc(F)c3)CC2)C1 (stereo not drawn) | 1.3%
CN(Cc1ccccc1)c1ncnc2c1CCN(C(=O)[C@@H](N)CO)CC2 | -18.3%

# Exported as labelled records: part of the list above.
SMILES: Cn1nc2n(c1=O)CCN(Cc1ccncc1F)CC2
- hNpr1 antagonist: -3.5%

SMILES: Cc1cc(Cl)ccc1OCC(=O)N1CCC2(CCCNC2=O)C1 (stereo not drawn)
- hNpr1 antagonist: 12.5%

SMILES: COc1ccc(CCN(C)Cc2nc(-c3ccccn3)no2)cc1OC
- hNpr1 antagonist: 0.4%

SMILES: Cc1ccc(-c2ccc3nnc(CNC(=O)c4ccncc4)n3n2)cc1C
- hNpr1 antagonist: 12.2%

# Some of the compounds tested; the hit share may differ from the screen's.
